Sfp PPTase inh: blocks B. subtilis Sfp PPTase activity | Q9F4F7 | Biochemical Sfp PPTase activity, qHTS | Potency, µM, for the others: max response, negative = inhibition, hits mostly inhibitors | 310,000 compounds, 3.5% hits; active means well fitted inhibition curve with a large enough effect; inconclusive means small, poorly fitted or top-dose-only effect, or another doubt; inactive means no such curve, though single readings can be large or run the other way;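 further: the enzyme is Sfp with the accession as filed and its product quenches rhodamine fluorescence; potency means the concentration at half of the fitted maximal effect; 0% = enzyme reaction without inhibitor and -100% = no enzyme wells; top concentration of the series not given in the record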
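With Hepes-Na pH 7.6 buffer containing 10 mM MgCl2, Sfp (15 nM) modified BHQ-2-YbbR (12.5 uM) using rhodamine-CoA (5 uM). Two reads 30 minutes apart at 525/598 nm yielded each well's rate.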
TRPV1 PAM: human TRPV1 potentiation | potentiation, % at 8.33 µM | 320,000 compounds, 0.02% hits | Q8NER1 | TRPV1-expressing cells, Fluo-8 calcium influx, capsaicin EC20 potentiation; host cell line not named in the record; control for the full effect not named in the record | AID 540277; active means potentiation above 80%; inconclusive means 30% to 80%; inactive means below 30%; further: 0% is about no effect
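Cells expressing TRPV1 were dye-loaded with Fluo-8 and read kinetically: 10 s baseline, 3 min after compound (agonist portion), then 2 min after EC20 capsaicin (allosteric enhancer portion). Calcium-bound dye fluorescence at 480/520 nm.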
CtBP-E1A blk: blocks the CtBP interaction with E1A. 340,000 compounds, 0.49% hits. AID 651724. AlphaScreen GST-E1A/His-CtBP binding, 1536-well; active compounds read low; control for the full effect not named in the record. activity change, % (no concentration beside the values); in the data active means activity change below about -65%; inconclusive means about -30% to -65%; inactive means above about -30%; further: on the % scale 0 is the no-effect control and ±100 the full control effect
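GST-E1A and His-tagged CtBP (125 nM each as 5X stock) were preincubated with pin-transferred compound for 2 h at 37 °C in the dark, then glutathione donor and nickel acceptor beads were added for 1 h before AlphaScreen reading.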
Six1-Eya2 blk: blocks human Six1 binding to Eya2; Q15475+O00167; AlphaScreen GST-Six1/His-Eya2 binding, biochemical; active compounds read low; control for the full effect not named in the record; activity change, % (no concentration beside the values); 360,000 compounds, 0.56% hits; in the data active = activity change below about -65%; inconclusive = about -30% to -65%; inactive = above about -30%; further: on the % scale 0 is the no-effect control and ±100 the full control effect
Target sequence (O00167 whole entry, looked up): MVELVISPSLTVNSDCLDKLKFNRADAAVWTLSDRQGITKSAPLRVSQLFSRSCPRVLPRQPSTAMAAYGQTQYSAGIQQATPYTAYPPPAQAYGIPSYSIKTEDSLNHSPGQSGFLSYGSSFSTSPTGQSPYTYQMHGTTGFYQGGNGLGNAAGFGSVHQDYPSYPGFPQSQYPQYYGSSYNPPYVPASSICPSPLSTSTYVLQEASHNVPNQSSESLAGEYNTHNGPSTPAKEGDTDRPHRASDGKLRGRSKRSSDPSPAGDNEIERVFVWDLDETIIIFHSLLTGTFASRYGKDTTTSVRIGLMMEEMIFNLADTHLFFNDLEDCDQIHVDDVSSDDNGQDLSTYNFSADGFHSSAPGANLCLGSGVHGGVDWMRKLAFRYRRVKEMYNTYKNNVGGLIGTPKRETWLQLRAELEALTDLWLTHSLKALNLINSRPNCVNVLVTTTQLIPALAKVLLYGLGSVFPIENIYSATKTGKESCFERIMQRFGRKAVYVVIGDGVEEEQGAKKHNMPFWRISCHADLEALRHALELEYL
Target sequence (Q15475 whole entry, looked up): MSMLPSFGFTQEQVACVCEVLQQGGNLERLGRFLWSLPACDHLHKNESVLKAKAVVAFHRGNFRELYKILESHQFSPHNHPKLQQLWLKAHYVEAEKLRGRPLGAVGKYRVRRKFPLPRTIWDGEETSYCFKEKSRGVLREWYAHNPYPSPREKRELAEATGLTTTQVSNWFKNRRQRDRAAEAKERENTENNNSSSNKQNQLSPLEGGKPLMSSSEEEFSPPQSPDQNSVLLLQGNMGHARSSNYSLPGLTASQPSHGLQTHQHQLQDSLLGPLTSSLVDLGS
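GST-Six1 + His-Eya2 (5X stock: 250/500 nM); Tris pH 8.0, 300 mM NaCl, 0.05% BSA, 0.02% Tween 20; GSH donor/Ni acceptor beads; 1 h 37 °C dark; AlphaScreen readout.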
PINK1 modulator: modulators of PINK1 expression; PINK1 immunofluorescence, high-content cytometry, 24 h; 410,000 compounds, 0.2% hits; Potency, µM (top dose mostly 76.6 µM), for inactives: at the top dose activation (PINK1 increase), hits mostly activators; active = well fitted activation curve with a large enough effect; inconclusive = small, poorly fitted or top-dose-only effect; inactive = flat fitted curve, though single readings scatter; cell line not stated here;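 further: potency means the concentration at half of the fitted maximal effect; % of control where 0% means no effect; nearly all actives have a fitted effect of over 65% in size; a mitochondrial uncoupler was the plate control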
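Compound titrations (5 concentrations, 24 h) on a stable cell line; DMSO and CCCP controls. Endpoint: fixed-cell PINK1 immunofluorescence with mitochondrial, cell and nuclear markers, scanned by microplate cytometer.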
D2 potentiator: human D2 receptor positive allosteric modulation | P14416 | DiscoveRx D2 beta-arrestin cells, luminescence, 90 min; 100% = 57 uM dopamine signal | potentiation, % (test concentration not listed) | 360,000 compounds, 0.23% hits; active = potentiation of 50% or more; inconclusive = 30% to 50%; inactive = 30% or less;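 further: compound concentration not given in the record; tested on top of an EC20 dose of dopamine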
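D2 cells co-treated with compound plus 50 nM dopamine (EC20) for 90 min at 37 deg C to detect potentiation. Beta-arrestin recruitment was read as enzyme-fragment luminescence after 1 h at ambient temperature. Full response was set by 57 uM dopamine.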
D2 ag: agonists of human D2 dopamine receptor (beta-arrestin); DiscoveRx PathHunter D2 beta-arrestin, luminescence, 90 min; 100% = 57 uM dopamine signal; activation, % (concentration not given with the values); 360,000 compounds, 0.084% hits; AID 624465; in the data active = activation above about 40%; inconclusive = about 15% to 40%; inactive = below about 15%; further: the text of the record calls up to 30% inactive
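Agonist mode: compounds alone added to overnight-plated D2 PathHunter cells for 90 min at 37 C, with 57 uM final dopamine (EC100) defining full response. Beta-arrestin recruitment detected by chemiluminescent reagent, read after 1 h at ambient temperature.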
* hit, by the source's call; ? = inconclusive; / = no result given; & = joins results of further samples; [ ] = dose if it differs, or a comment.

1. COc1ccc(N(Cc2cc(=O)[nH]c3ccccc23)C(=O)c2ccco2)cc1
2. COc1ccc(Cl)cc1NC(=O)COC(=O)c1cc(C)oc1C
3. CCOC(=O)N/N=C\C=C\c1ccco1
4. CC(C)NC(=O)C1(C)CCN1Cc1cccc(C#N)c1 (stereo unspecified)
5. CCCn1nnc(NC(=O)Cc2ccc(Cl)cc2)n1
6. COc1cc(/C=N/NC(=O)c2[nH]nc3c2CCc2ccccc2-3)ccc1O

assay / entry,1,2,3,4,5,6
Sfp PPTase inh,56µM*,/,45µM*,/,15%,?
TRPV1 PAM,16,/,9,/,-1,6
CtBP-E1A blk,-22,12,4,6,9,-9
Six1-Eya2 blk,0,0,-8,5,4,-5
PINK1 modulator,-0.4%,2.2%,2.1%,-0.7%,-3.6%[38.3 µM],1.1%
D2 potentiator,-4,1,1,-6,-11,-2
D2 ag,-0.6,-1.0,2.5,-3.3,-1.1,-1.0

Next section; it opens with the two that closed the last part.
5. CCCn1nnc(NC(=O)Cc2ccc(Cl)cc2)n1
6. COc1cc(/C=N/NC(=O)c2[nH]nc3c2CCc2ccccc2-3)ccc1O
7. CCN(CC(=O)NCc1ccc(F)cc1)Cc1cc(=O)n2ccsc2n1
8. Cc1ccc(CNC(=O)c2ccc(OCC(C)C)cc2)n1C
9. C#CCOCCOCCOCCNc1nc(N2CCN(C(=O)[C@H](C(C)C)n3cc(CCO)nn3)CC2)nc(N2CCN(C(=O)[C@H](Cc3ccc(O)cc3)n3cc(CCO)nn3)CC2)n1
10. Nn1c(COc2ccccc2)nc2ccccc2c1=O
11. Cc1cc(Cl)ccc1OCC(=O)Nc1cccc(S(=O)(=O)NC2=NCCCCC2)c1
12. COc1ccc(NC(=S)Nc2cc(-c3ccccc3)[nH]n2)cc1Cl

assay / entry,5,6,7,8,9,10,11,12
Sfp PPTase inh,15%,?,17%,3%,/,0%,/,?
TRPV1 PAM,-1,6,13,-6,/,5,4,?
CtBP-E1A blk,9,-9,6,0,0,-8,-29,-14
Six1-Eya2 blk,4,-5,6,-12,0,8,3,-28
PINK1 modulator,-3.6%[38.3 µM],1.1%,-1.3%,0.5%,-0.5%,-2.7%,2.1%,14%[38.3 µM]
D2 potentiator,-11,-2,0,-12,-14,-8,15,15
D2 ag,-1.1,-1.0,0.6,5.4,-2.9,-1.3,2.9,4.9

13. O=C(O)C1C2CCC(C2)C1C(=O)Nc1ccccc1 (stereo unspecified)
14. COc1cc(OC)cc(C(=O)NCC(=O)OCC(=O)NC(C)CCc2ccccc2)c1 (stereo unspecified)
15. O=C(O)c1cc(NC(=O)C2CCCO2)cc(C(=O)O)c1 (stereo unspecified)
16. Cc1ccc(S(=O)(=O)NCC(=O)N(CC(=O)NCc2ccco2)Cc2cccs2)cc1
17. CCCS(=O)(=O)N1CCC(C(=O)NCc2ccc(F)cc2)CC1
18. CCc1n[nH]c(=S)n1/N=C/C(C)=C\c1ccccc1

assay / entry,13,14,15,16,17,18
Sfp PPTase inh,/,/,15%,20%,3%,?
TRPV1 PAM,/,/,6,4,-8,-5
CtBP-E1A blk,-1,4,9,3,23,/
Six1-Eya2 blk,0,2,5,-1,10,1
PINK1 modulator,1.3%,2.5%,1.8%,-0.8%[38.3 µM],0.2%,-0.1%
D2 potentiator,-5,0,-1,1,4,1
D2 ag,-2.8,1.2,-4.8,-2.5,-3.3,6.7

19. Cc1ccc(S(=O)(=O)N2CC(O)CC2C(=O)OCC(=O)c2ccccc2Cl)cc1C (stereo unspecified)
20. O=C(Nc1ccccc1)c1cc2n(n1)C(C(F)(F)F)CC(C1CC1)N2 (stereo unspecified)
21. CCOc1ccccc1CNC(=O)C1CCN(C(=O)c2sccc2-n2cccc2)CC1
22. CCCc1[nH]nc2c1C(c1ccsc1)C(C#N)=C(N)O2 (stereo unspecified)
23. C/C=C/c1cccc(-c2nc(C(=O)NC3CCC3)cc3c2[C@H](CCO)N(S(=O)C(C)(C)C)C3)c1 (stereo partly specified)
24. CC1=NN(C(N)=S)C(=O)C1N=Nc1ccccc1 (stereo unspecified)

assay / entry,19,20,21,22,23,24
Sfp PPTase inh,12%,17%,3%,9%,/,?
TRPV1 PAM,11,4,2,0,/,0
CtBP-E1A blk,-2,2,-2,5,-23,/
Six1-Eya2 blk,-7,3,-5,2,4,1
PINK1 modulator,3.4%,-0.5%,2.4%,1.7%,1.4%,-1.7%
D2 potentiator,-20,-1,-4,-4,-5,7
D2 ag,-6.0,-4.6,-3.4,-3.1,1.2,7.1

25. O=C(NC1CCC(=O)N(CCSc2ccccc2)CC1)OCc1ccccc1 (stereo unspecified)
26. O=C(/C=C/c1cccs1)NC(=S)NNC(=O)Cc1cccs1
27. O=C(NCCCn1ccnc1)c1cc(-c2ccncc2)nc2ccccc12
28. CCOC(=O)N1CCN(Cc2nc(-c3ccccc3)no2)CC1
29. Cc1cccc(-c2cnc(C(O)c3ccc(F)c(C)c3)[nH]2)c1 (stereo unspecified)
30. COc1ccc(N(CC(=O)Nc2ccc(F)c(F)c2)S(=O)(=O)c2c(C)n[nH]c2C)cc1

assay / entry,25,26,27,28,29,30
Sfp PPTase inh,24%,23%,13%,10%,/,19%
TRPV1 PAM,4,8,9,-3,/,-25
CtBP-E1A blk,-7,-23,1,0,0,-10
Six1-Eya2 blk,-8,-22,-1,0,9,-4
PINK1 modulator,-0.4%,1.1%,-0.9%,0.4%,1.3%,2.0%
D2 potentiator,-12,-13,-6,-12,-12,-10
D2 ag,1.4,-2.8,-1.0,-2.5,-3.6,-0.6

31. CC(C)C[C@H]1CN([C@@H](CC(C)C)CN2CCC[C@@H]2CN2C(=S)NC[C@@H]2Cc2ccc(O)cc2)C(=S)N1CCc1ccccc1
32. C=CCNC(=O)c1nn2cccnc2c1Cl
33. NC(=O)C1CC2(C1)CC(C(N)=O)C2 (stereo unspecified)
34. CCCN1C(=O)CC(C(=O)OC)=C1C
35. CCOC(=O)c1oc2cc(O)c(CC)cc2c(=O)c1-c1cscn1
36. O=C(NCCNS(=O)(=O)c1cccc(C(F)(F)F)c1)c1cc(OCC(F)(F)F)ccc1OCC(F)(F)F

assay / entry,31,32,33,34,35,36
Sfp PPTase inh,/,26%,/,13%,6%,8%
TRPV1 PAM,/,-1,/,3,6,-15
CtBP-E1A blk,-5,4,2,-1,1,-6
Six1-Eya2 blk,-14,5,6,4,-5,5
PINK1 modulator,13%,-1.3%,1.1%,0.5%,17%,-1.4%
D2 potentiator,-4,-9,-8,-9,4,12
D2 ag,2.0,-2.0,-1.3,-0.7,4.9,1.5

37. CCn1c(CNc2ccc(Cl)cc2)nnc1SCCN1CCCCC1
38. c1ccc(N=NC2=NN(c3ccccc3)CS2)cc1
39. CC(C)OCCCNC(=O)c1cn(C)c2ccc(S(=O)(=O)N(C)C3CCCCC3)cc2c1=O
40. CC(C)(C)C(=O)Nc1ccccc1C(=O)Nc1ccccn1
41. COc1ccc(/C=C2\SC(=O)N(CC(=O)Nc3ccc(O)cc3)C2=O)cc1OC
42. COc1cccc(N(CC(=O)N2CCN(C)CC2)S(=O)(=O)c2ccc(C)cc2)c1

assay / entry,37,38,39,40,41,42
Sfp PPTase inh,13%,/,7%,13%,-2%,5%
TRPV1 PAM,2,/,-32,-12,1,-3
CtBP-E1A blk,-1,?,/,-1,-18,4
Six1-Eya2 blk,-11,-77*,-2,2,-4,2
PINK1 modulator,-0.5%,1.9%,-0.3%&0.5%,0.4%,7.6%,-1.8%
D2 potentiator,-53,-8,-4,-13,-7,-29
D2 ag,-2.5,-1.9,0.7,-1.5,-4.7,-0.6

43. O=C(Cn1c(NCCO)nc2ccccc21)c1ccc(Cl)cc1
44. COc1cccc(C(=O)N(Cc2nc(-c3cccc(C)c3)no2)C(C)C)c1OC
45. COC(=O)c1ccc(Cn2nnc3ccccc32)cc1
46. COc1ccc(NC(=O)CCN2CCN(S(=O)(=O)c3ccc(C(C)C)cc3)CC2)cc1
47. COc1ccc(NC(=O)N2CCOCC2)cc1
48. COc1ccc(-c2nnc(SCc3csc(N)n3)n2C)cc1

assay / entry,43,44,45,46,47,48
Sfp PPTase inh,-14%,-4%,26%,5%,20%,10%
TRPV1 PAM,-30,-11,4,2,1,-1
CtBP-E1A blk,3,9,5,10,-9,7
Six1-Eya2 blk,2,-17,-2,2,-2,-3
PINK1 modulator,2.0%,1.1%,0.8%,/,0.7%,?
D2 potentiator,25,-14,-9,-9,-4,-9
D2 ag,-1.6,-0.4,4.4,1.5,-1.7,1.4

49. Cc1nc(NC(=O)c2csc3ccccc23)sc1C
50. CCCN(CC(=O)Nc1ccccc1C)C(=O)CCCNC(=O)c1ccc(Cl)cc1
51. CNS(=O)(=O)c1cc(N)ccc1C
52. CN(C)S(=O)(=O)NC(=O)C1=C(N2CCCC2)COC1=O
53. CC(C)Oc1ccc(/C=N/NC(=O)c2nnn(-c3nonc3N)c2CN(C)C2CCCCC2)cc1
54. Clc1ccccc1Cn1nc(-c2ccccc2)nc1-c1ccccc1
55. O=C(COc1ncnc2ccccc12)NC1CCCC1

assay / entry,49,50,51,52,53,54,55
Sfp PPTase inh,-15%,/,1%,/,7%,-6%,/
TRPV1 PAM,-7,-3,12,/,9,7,/
CtBP-E1A blk,-9,1,4,2,-2,4,/
Six1-Eya2 blk,-4,-1,8,-16,-11,4,13
PINK1 modulator,7.0%[38.3 µM],-0.1%,1.8%,2.3%,4.3%,8.0%,-0.1%
D2 potentiator,4,-13,2,-4,-23,-5,-9
D2 ag,0.7,-10,-6.1,-1.7,-4.5,-0.6,-1.8

Of the compounds above, these contain an NH in an aromatic ring:
1. COc1ccc(N(Cc2cc(=O)[nH]c3ccccc23)C(=O)c2ccco2)cc1
6. COc1cc(/C=N/NC(=O)c2[nH]nc3c2CCc2ccccc2-3)ccc1O
12. COc1ccc(NC(=S)Nc2cc(-c3ccccc3)[nH]n2)cc1Cl
18. CCc1n[nH]c(=S)n1/N=C/C(C)=C\c1ccccc1
22. CCCc1[nH]nc2c1C(c1ccsc1)C(C#N)=C(N)O2 (stereo unspecified)
29. Cc1cccc(-c2cnc(C(O)c3ccc(F)c(C)c3)[nH]2)c1 (stereo unspecified)
30. COc1ccc(N(CC(=O)Nc2ccc(F)c(F)c2)S(=O)(=O)c2c(C)n[nH]c2C)cc1

assay / entry,1,6,12,18,22,29,30
Sfp PPTase inh,56µM*,?,?,?,9%,/,19%
TRPV1 PAM,16,6,?,-5,0,/,-25
CtBP-E1A blk,-22,-9,-14,/,5,0,-10
Six1-Eya2 blk,0,-5,-28,1,2,9,-4
PINK1 modulator,-0.4%,1.1%,14%[38.3 µM],-0.1%,1.7%,1.3%,2.0%
D2 potentiator,-4,-2,15,1,-4,-12,-10
D2 ag,-0.6,-1.0,4.9,6.7,-3.1,-3.6,-0.6
